TRPV1 potentiator = potentiators of human vanilloid receptor 1 (TRPV1). AID 540277. 320,000 tested, 0.02% active. Q8NER1. potentiation, % at 8.33 µM. TRPV1-expressing cells, Fluo-8 calcium influx, capsaicin EC20 potentiation; host cell line not named in the record; control for the full effect not named in the record; active means potentiation above 80%; inconclusive means 30% to 80%; inactive means below 30%; also: 0% is about no effect
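Cells expressing TRPV1 were dye-loaded with Fluo-8 and read kinetically: 10 s baseline, 3 min after compound (agonist portion), then 2 min after EC20 capsaicin (allosteric enhancer portion). Calcium-bound dye fluorescence at 480/520 nm.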
ClpP mod = qHTS Assay for Activators of ClpP. 340,000 tested, 1.9% active. Potency, µM (doses to about 57.5 µM), for inactives: at the highest dose activity change, negative = active. AID 651965, 2013. purified B. subtilis ClpP, FRET peptide cleavage, 20 min. ATP-dependent Clp protease proteolytic subunit (Bacillus subtilis (strain 168)), P80244; active = well fitted falling curve with a large enough effect; inconclusive = small, poorly fitted or top-dose-only effect; inactive = no such curve, though single readings can be large or run the other way; also: potency is read from the fitted curve at half-maximal effect; the source files actives as falling curves though it sought activators and does not explain the sign; nearly all actives have a fitted effect of over 65% in size; many hits overshoot -100%
Target sequence (P80244 whole entry, looked up): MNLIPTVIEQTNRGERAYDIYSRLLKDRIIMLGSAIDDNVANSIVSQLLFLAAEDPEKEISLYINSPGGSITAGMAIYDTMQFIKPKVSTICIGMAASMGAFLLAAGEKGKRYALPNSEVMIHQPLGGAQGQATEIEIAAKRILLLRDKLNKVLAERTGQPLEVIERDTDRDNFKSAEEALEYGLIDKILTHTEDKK
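Buffer: 100 mM Tris/HCl pH8, 100 mM KCl, 0.05% low protease BSA, 2.5% glycerol, 0.01% Tween-20. ClpP 10 microg/mL final; 20 min RT; delta FRET normalized to ADEP and DMSO controls.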
gsp antagonist = antagonizes gsp, the McCune-Albright syndrome mutation; gsp-mutant cells, cAMP HTRF, 30 min; control for the full effect not named in the record; Potency, µM (top dose mostly 76.9 µM), inactives show top-dose activity change, negative = inhibition, actives largely listed as inhibitors; 340,000 tested, 0.4% active; active = falling curve of any shape with a large fitted effect; inconclusive = falling curve, mostly with a smaller effect; inactive = flat or rising curve; cell line not stated here;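 also: intracellular cAMP measured with PDE inhibitor Ro 20-1724 present during compound exposure; potency is read from the fitted curve at half-maximal effect; % is scaled to controls: 0 for no effect and ±100 for the full control effect; nearly all actives have a fitted effect of over 65% in size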
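Measurement of cellular cAMP by homogeneous time-resolved fluorescence following a 30 min compound exposure at 37C. The PDE inhibitor […] was present throughout; the assay buffer was DPBS with 0.05% BSA and 0.005% Tween 20.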
Sfp PPTase inh = inhibitors of Bacillus subtilis Sfp phosphopantetheinyl transferase. Q9F4F7. Biochemical Sfp PPTase activity, qHTS. Potency, µM, without a hit: max response, negative = inhibition, hits mostly inhibitors. 310,000 tested, 3.5% active. AID 1490; active = well fitted inhibition curve with a large enough effect; inconclusive = small, poorly fitted or top-dose-only effect, or another doubt; inactive = no such curve, though single readings can be large or run the other way;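 also: the enzyme is Sfp with the accession as filed and its product quenches rhodamine fluorescence; potency is read from the fitted curve at half-maximal effect; 0% = enzyme reaction without inhibitor and -100% = no enzyme wells; top concentration of the series not given in the record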
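After 15 min at room temperature with compound, 15 nM Sfp received 5 uM rhodamine-CoA plus 12.5 uM BHQ-2-ybbR (50 mM Hepes pH 7.6, 10 mM MgCl2). Rate came from the fluorescence difference over 30 min, ex 525/em 598 nm.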
gsp agonist = gsp mutant agonism | 340,000 tested, 0.13% active | gsp mutant cells, cAMP HTRF, 30 min; control for the full effect not named in the record | Potency, µM (series often up to 76.9 µM), inactives show at the highest dose activation (cAMP increase), usual class: activators | AID 624287; active = well fitted activation curve with a large enough effect; inconclusive = small, poorly fitted or top-dose-only effect, or another doubt; inactive = no such curve, though single readings can be large or run the other way; cell line not stated here;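 also: phosphodiesterase inhibitor Ro 20-1724 added with compounds to block cAMP breakdown; potency is read from the fitted curve at half-maximal effect; nearly all actives have a fitted effect of over 60% in size; about a fifth of the inactives were tested at one dose only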
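Cells in DMEM/10% FBS with G418 were pretreated with compounds in DMSO plus […] (300 uM stock) for 30 min at 37C. cAMP was measured by HTRF (cAMP-d2 plus anti-cAMP antibody-K) after 30 min at room temperature.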
Menin MLL FP FL = menin-MLL binding inhibition, fluorescein peptide; Fluorescence polarization, fluorescein-MLL peptide displacement from menin; FP activity change, % at 61.4 µM; 290,000 tested, under 10 active; inconclusive = falling polarisation curve, or a change in total fluorescence; inactive = total fluorescence flat and polarisation flat or rising; no compound was filed as active; the % refers to the polarisation; negative = inhibition;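 also: % of control where 0% means no effect; inhibitors lower the polarisation; unlabelled MLL peptide was the positive control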
D2 PAM = potentiates the human D2 dopamine receptor allosterically | P14416 | DiscoveRx D2 beta-arrestin cells, luminescence, 90 min; 100% = 57 uM dopamine signal | potentiation, % (concentration not given with the values) | 360,000 tested, 0.23% active | AID 624464; active = potentiation of 50% or more; inconclusive = 30% to 50%; inactive = 30% or less;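 also: compound concentration not given in the record; tested on top of an EC20 dose of dopamine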
Target sequence (P14416 whole entry, looked up): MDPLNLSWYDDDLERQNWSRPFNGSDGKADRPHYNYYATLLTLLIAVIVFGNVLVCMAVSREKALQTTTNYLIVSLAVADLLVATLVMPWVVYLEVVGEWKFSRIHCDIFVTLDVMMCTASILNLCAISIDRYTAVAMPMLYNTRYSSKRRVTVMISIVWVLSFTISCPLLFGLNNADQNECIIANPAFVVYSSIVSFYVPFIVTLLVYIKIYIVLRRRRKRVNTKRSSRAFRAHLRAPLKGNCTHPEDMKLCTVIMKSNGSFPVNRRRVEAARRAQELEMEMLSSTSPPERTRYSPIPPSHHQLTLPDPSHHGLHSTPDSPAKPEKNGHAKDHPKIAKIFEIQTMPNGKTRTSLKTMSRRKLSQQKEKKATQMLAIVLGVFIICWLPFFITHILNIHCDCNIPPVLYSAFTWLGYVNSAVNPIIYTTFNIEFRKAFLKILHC
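D2 cells co-treated with compound plus 50 nM dopamine (EC20) for 90 min at 37 deg C to detect potentiation. Beta-arrestin recruitment was read as enzyme-fragment luminescence after 1 h at ambient temperature. Full response was set by 57 uM dopamine.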
* marks the source's active call; other numbers are inactive results; ? = inconclusive; . = not tested or not shown; & = joins results of further samples; [ ] = remark or other dose.

Values run as follows: Sfp PPTase inh, TRPV1 potentiator, gsp antagonist, gsp agonist, ClpP mod, Menin MLL FP FL, D2 PAM
- CCOC(=O)N1CCC(NC(=O)Cn2ncc3ccccc32)CC1
    6.0%, 3.2, 4.5%, -15.3%, 0.3%, 2.2, -13.1
- CSc1nc2ccccc2cc1/C=C(\C#N)c1ccc(Cl)cc1Cl
    0.0%, -0.4, 0.6%, 8.2%, -12.1%, 1.4, 10.0
- Cc1c(NC(=O)OCCNC(=O)COc2c(Cl)cccc2Cl)sc(=S)n1C
    -13.9%, -3.1, 6.6%, -10.4%, 0.6%, 2.4, -8.0
- COc1ccccc1NC(=O)/C=C/C(N)=O
    ?, -1.3, -2.9%, -31.5%[inhibitor], 1.4%, 8.3, -6.5
- Cc1ccc(NC(=O)CCC(=O)N2CCC(c3ccccc3)=N2)cc1S(=O)(=O)N1CCCCC1
    ., 5.7, -1.1%, -1.2%, -10.2%, ., 7.9
- Cc1ccc(CNC(=O)CCS(=O)(=O)c2cc3c(cc2Cl)NC(=O)CO3)cc1
    8.9%, -2.3, -2.2%, -13.3%, 0.4%&1.4%, -0.4, -0.6
- CN(C)CCNC(=O)c1ccccc1-c1cc2ccccc2c(=O)o1
    7.7%, -0.6, 10.6%, -22.5%[15.4 µM], ., -2.8, -0.3
- Cc1ccc2c(c1)nnn2C1CCN(C(=O)NC23CC4CC(CC(C4)C2)C3)CC1
    22.1%, -7.8, ., ., ., 0.6, .
- COc1cc(OC)cc(-n2nnnc2SCC(=O)N2CCCc3ccccc32)c1
    6.4%, -13.4, -1.6%, -31.1%[inhibitor], 0.1%, 0.5, -4.2
- CC(C)(C)c1ccc(C2(C)NC(=O)N(CC(=O)NC3CCS(=O)(=O)C3)C2=O)cc1 (stereo unspecified)
    ., -5.9, 9.0%, -5.4%, -4.1%, ., -14.6
- NC(=O)C(C(=O)/C=C/c1ccc(Cl)cc1)=C1SCCS1
    0.2%, 7.0, 4.4%, -14.1%, 0.6%, -0.5, -1.9
- O=C(c1ccc(Br)cc1)N1CCC2(CC1)NCCc1[nH]cnc12
    4.8%, 11.9, 5.0%, -23.2%, -1.9%, ., -8.4
- CCN(CC)C(=O)Oc1ccc(Br)cc1C(=O)Nc1ccc(F)cc1F
    10.4%, -14.6, 0.3%, -7.7%[15.4 µM], 31.6µM*, -0.9, -4.2
- CN(C)S(=O)(=O)c1ccc(NC(=O)CN2CCc3ccccc32)cc1
    1.8%, -8.0, 10.3%, -16.3%, -0.9%, -1.4, -10.2
- O=C(Oc1coc(CSc2ncccn2)cc1=O)c1ccccc1[N+](=O)[O-]
    1.8%, 1.4, 9.0%, ?, -0.4%, -2.0, -2.4
- COC(=O)CSc1nc(N)c2c3c(sc2n1)CCCC3
    -14.8%, -0.3, -18.0%, 7.9%, -11.0%, 2.7, -0.5
- O=c1c(-c2ccccc2)[n+]([O-])c2ccccc2n1O
    39.8µM*, 23.6, 4.4%, 9.9%, 0.7%, -13.1, -12.0
- COc1ccc2[nH]c3c(c2c1)CCN1C(=O)C(CC(=O)NCC24CC5CC(CC(C5)C2)C4)C[C@H](C(=O)N2CCCCC2)[C@@]31C (stereo partly specified)
    ., ., -23.8%, ., -0.6%, ., -7.0
- Cc1cc(=O)n2[nH]cnc2n1
    11.4%, -5.4, 7.5%, 0.9%, 1.8%, -0.7, -11.5
- OC(CN(c1ccccc1)c1ccccc1)Cn1cnc2ccccc21 (stereo unspecified)
    4.8%, -10.5, -22.0%, 7.9%, -5.1%, 2.4, -22.6
- C/C=C/c1ccc(OCC(O)CN(C)Cc2ccc(SC)cc2)c(OC)c1 (stereo unspecified)
    -20.5%, 6.4, 9.6%, 4.6%, -0.9%, -2.0, -18.3
- COc1ccc(NC2CCCN(C(=O)CSc3ccccn3)C2)cc1OC (stereo unspecified)
    -9.5%, -0.6, ?, 5.8%, -0.3%, -4.4, 4.1
- CCCOc1ccc(C(=O)CCNc2cccc(Cl)c2)cc1
    17.6%, 1.1, -1.0%, 1.7%[15.4 µM], ., -3.9, 0.1
- C/C(=N\NC(=O)c1ccc(NS(=O)(=O)c2cccs2)cc1)c1ccccc1
    14.0%, 8.0, -9.6%, -1.0%, -1.0%, 7.7, -13.8
- COc1cc(CNC(=O)CCCC(=O)c2ccccc2)cc(OC)c1OC
    11.0%, 2.9, -0.9%, -9.7%, 0.8%, 4.4, -2.8
- O=C(C1CC1)N1CCN=C1SCc1ccccc1
    11.1%, -2.1, 3.9%, 10.6%, 1.1%, -0.5, -7.8
- COC(=O)CC1C(=O)NCCN1C(=O)OC(C)(C)C (stereo unspecified)
    1.7%, -7.9, 6.3%, ?, 1.8%, 5.4, -2.6
- N#C/C(=C/c1ccccc1)C(=O)NCc1ccccc1
    11.4%, -11.2, -12.0%, 16.5%[15.4 µM], ., -2.5, -7.3
- O=S(=O)(NCc1cccnc1)c1ccc(Cl)cc1
    4.7%, 19.4, 3.6%, -64.5%[inhibitor], 0.4%, 0.4, -13.2
- COC(=O)c1ccccc1NC(=O)CSc1n[nH]c(C)n1
    8.8%, -12.7, 6.1%, 4.5%, -6.8%&-2.1%, -2.8, -7.5
- Cn1c(=O)n(C)c2cc(/C=N/NC(=O)c3cccc(Br)c3)ccc21
    0.4%, 9.0, -3.1%, 3.2%, ?, 3.6, -5.5
- CC(=O)c1cc(CN2C(=O)CCC2=O)cs1
    14.4%, -14.4, 2.5%, -32.3%, 0.6%, -0.4, 16.4
- O=C(Cc1cccs1)NCc1cn2ccccc2n1
    28.5%, 23.9, 0.6%, 25.6%, 3.8%, 4.8, -3.2
- O=C(CNC(=O)OCc1ccccc1)Oc1cc2oc(=O)cc(-c3ccccc3)c2cc1Cl
    16.8%, 7.8, -15.2%, 12.0%, -15.5%, ?, -1.1
- O=C(Nc1cccc(O)c1)c1cc(S(=O)(=O)N2CCCC2)ccc1Cl
    5.4%, 3.0, 16.9%, -14.3%, -1.0%, -1.7, 22.8
- COc1ccc(/C=C2\SC(N3CCc4ccccc4C3)=NC2=O)cc1
    -22.3%, -14.5, -61.2%, -35.2%[inhibitor], 141.7%, 0.8, -41.8
- COC(=O)C1=C(C)OC(N)=C(C#N)C1c1ccsc1 (stereo unspecified)
    0.2%, 2.1, 7.3%, -15.0%, -3.1%, 4.6, -0.8
- CN(C)CCN(C(=O)c1ccc(S(=O)(=O)N(C)CC2CCCO2)cc1)c1nc2cc3c(cc2s1)OCO3 (stereo unspecified)
    -2.8%, -6.2, -4.0%, -9.7%, 1.7%, -2.3, -20.4
- CN(C)c1ccnc2sc(C(=O)NCc3ccccc3)c(N)c12
    -0.7%, -7.0, 1.4%, 6.6%, -5.1%, 1.4, -10.2
- COc1cc(C(=O)NCCOc2ccc(C)c(C)c2)cc(OC)c1OC
    -14.3%, 2.0, -8.1%, 5.4%, -2.3%, 2.3, -1.5
- O=C(CSc1nnc(SCc2ccc(Cl)cc2)s1)N/N=C/c1ccc(C(=O)O)cc1
    4.2%, -19.3, 1.0%, -11.7%[15.4 µM], ., -0.1, -0.3
- O=C(NC1CCCc2ccccc21)C1CCN(S(=O)(=O)c2cccc(C(F)(F)F)c2)CC1 (stereo unspecified)
    2.0%, ?, -7.3%, -15.1%, 1.3%, ., -3.7
- c1ccc(-c2cc(-c3nn4c(-c5ccco5)nnc4s3)c3ccccc3n2)cc1
    ?, -30.8, -3.1%, 4.4%, -4.1%, 1.7, 19.9
- COc1ccc(C(CNC(=O)COc2ccc(-c3ccccc3)cc2)N2CCOCC2)cc1 (stereo unspecified)
    2.5%, -7.0, -17.1%, -23.1%, -1.1%, 1.3, -17.2
- CSc1cccc(NC(=O)CN(c2ccccc2)S(=O)(=O)N(C)C)c1
    5.8%, ?, -20.7%, -0.8%, 0.6%&0.7%, 4.9, -0.8
- CC1=CC2=NC(=O)/C(=C\c3cn(C)c4ccccc34)C(=N)N2O1
    13.0%, -3.8, -12.8%, ?, ., 5.3, -4.6
- CCn1c2ccccc2c2cc(NC(=O)CSc3nnnn3-c3ccccc3)ccc21
    10.6%, 25.7, -6.7%, -28.9%, -0.1%, 1.8, -4.4
- Cc1ccc(NC(=O)CSCc2n[nH]c(=O)[nH]2)c(Br)c1
    10.6%, 19.4, 11.4%, -1.3%[15.4 µM], ., -0.9, -4.4
- Cc1ccn2cc(-c3cccc(S(=O)(=O)N4CCCC4)c3)nc2c1
    7.0%, -5.2, -12.1%, 15.1%, ., 10.5, 5.7
- COc1ccc(C2N(c3ccc(Cl)cc3)C(=O)C3CCCN32)cc1 (stereo unspecified)
    -9.1%, ., 7.0%, ?, 0.9%, 2.8, -2.2
- O=C1NC(=O)N(c2ccc(Cl)cc2)C(=O)/C1=C/c1ccc2c(c1)CCN2Cc1ccccc1Cl
    ., ., 12.5%, -0.3%[15.4 µM], ., ., -2.0
- O=C(Nc1ccccc1)Nc1nnc(COc2ccccc2F)s1
    4.0%, ?, -17.2%, 3.4%[15.4 µM], -1.5%, 2.8, 3.0
- CCOCCn1c(C(C)C)nc2ccccc21
    13.6%, 6.2, 6.8%, -59.2%[inhibitor], 2.1%, 0.4, 21.9
- COc1ccccc1NC(=S)NC(C)C(c1cccs1)N1CCOCC1 (stereo unspecified)
    11.2%, -11.5, -9.0%, -4.9%, -0.7%, 3.7, -9.2
- NC(=O)c1ccsc1NC(=O)CS(=O)(=O)c1ccc(Cl)cc1
    8.9%, -11.7, 10.9%, -25.7%, 0.1%, ., -0.3
- CN(C)S(=O)(=O)c1ccc(N2CCCC2)c(C(=O)NCC2CCCCC2)c1
    ?, -8.4, 0.5%, -8.8%, -3.9%, 1.3, -20.5
- CCc1ccc2oc(=O)cc(CN3CCN(c4ccc(F)cc4)CC3)c2c1
    7.5%, -5.2, -12.4%[15.4 µM], 1.0%, 0.7%, 5.2, -9.7
- Cc1ccc(S(=O)(=O)N2CCC[C@H]2C(=O)Oc2ccccc2)cc1
    ., ., -8.1%, 3.3%, ., ., -2.5
- NC(=N\N=CCc1ccccc1)/C(N)=N/N=CCc1ccccc1
    ., ., 2.1%, ?, ., ., -6.7
- Cc1c(C(=O)Oc2cccc3ccccc23)cnn1-c1ccccc1
    -25.9%, 6.0, -9.7%, -12.0%, -1.1%, 5.1, 9.6

From PubChem

The order is random; any-hit rate near 5.1%.
